# TAR Tat displ: HIV-1 TAR-Tat binding disruption. HIV-1 TAR RNA, Tat peptide displacement FRET; active compounds read high. z-score (no concentration beside the values). 100,000 tested, 0.6% active. AID 1259389;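 also: score is relative to mean and SD of negative controls; some compounds called inactive have numbers as strong as hits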
# CDC25B CDK2 inh: human CDC25B-CDK2/CyclinA binding inhibition; HTRF CDC25B-CDK2/CyclinA binding, anti-His/anti-Flag; active compounds read high; z-score (test concentration not listed); 94,000 tested, 0.72% active; AID 1259370;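 also: score is relative to mean and SD of negative controls; strong numbers were not always called active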
# Active calls of the source: *; · = no result given.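 The calls were made as follows: active = z-score from 3 up in half or more of its runs; inactive = the rest.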
SMILES,TAR Tat displ,CDC25B CDK2 inh
CCOC(=O)CCCC(SC#N)C(=O)c1[nH]c(=O)[nH]c1C (configuration not stated),0.16,0.72
CCOc1ccc(-n2c(C)nnc2SCc2nc(-c3ccc(C)cc3)no2)cc1,2.1,1
O=C(Nc1ccc(Cl)cc1)N1CCCN(c2ccc(C(F)(F)F)cc2[N+](=O)[O-])CC1,·,-1.5
COc1ccc(-c2c(C)nn3c2N=C(c2ccccc2)CC3c2ccco2)cc1 (configuration not stated),-6.9,-2.1
O=C(O)c1cccc(-n2c(=O)c3ccccc3c3ccccc3c2=O)c1,·,-0.6
COCCCN=C1NS(=O)(=O)C(c2ccc(C)c(C)c2)=C1C,-1.5,-0.45
O=C(O)c1ccc2c(=O)[nH]c3c(C(=O)N4CCCC4)sc(=S)n3c2c1,0.6,·
CCOc1ccccc1NC(=O)Nc1nc2ccc(S(C)(=O)=O)cc2s1,1.2,-0.37
COc1ccc(S(=O)(=O)c2ccc(=O)[nH]n2)cc1,-0.01,-1.4
O=C(Cn1ncn2c(cc3cc(F)ccc32)c1=O)NC1CCCCC1,-0.9,-0.75
Cc1cn2c(=O)c(S(=O)(=O)N3CCN(c4cccc(C)c4C)CC3)c(C)nc2s1,-0.06,·
O=C(O)c1ccc(-c2nc(-c3ccccc3)c(-c3cccs3)[nH]2)cc1,-3.1,-1.6
COCCNc1nc2ccccc2c2nc(CCn3c(C)nc4ccccc43)nn12,-0.81,-1.7
CC12COC3(C(=O)Nc4ccccc4Br)CC1CCC32C (configuration not stated),·,-0.83
Clc1ccc(-c2noc(CN3CCN(c4ccccc4)CC3)n2)cc1,0.89,-1.1
O=c1c(S(=O)(=O)c2cccc(F)c2)c[nH]c2c(F)ccc(Cl)c12,1.1,-1.8
O=C(O)CCCNS(=O)(=O)c1ccc(Br)cc1,0.66,0.31
CCOC(=O)c1noc2ncn(Cc3ccc4nonc4c3)c(=O)c12,0.7,·
O=c1[nH]c2c(oc3ccc(Cl)cc32)c(=O)n1-c1ccccc1,·,0.05
COC(=O)c1c(SC)[nH]c2ccccc2c1=O,0.5,-1.1

# Some of these compounds in order of heavy-atom count, rising.
SMILES,TAR Tat displ,CDC25B CDK2 inh
COC(=O)c1c(SC)[nH]c2ccccc2c1=O,0.5,-1.1
O=c1[nH]c2c(oc3ccc(Cl)cc32)c(=O)n1-c1ccccc1,·,0.05
O=C(O)c1ccc2c(=O)[nH]c3c(C(=O)N4CCCC4)sc(=S)n3c2c1,0.6,·
CCOc1ccccc1NC(=O)Nc1nc2ccc(S(C)(=O)=O)cc2s1,1.2,-0.37
COc1ccc(-c2c(C)nn3c2N=C(c2ccccc2)CC3c2ccco2)cc1 (configuration not stated),-6.9,-2.1
COCCNc1nc2ccccc2c2nc(CCn3c(C)nc4ccccc43)nn12,-0.81,-1.7

# Returning to the listing, repeating the three entries before the break.
SMILES,TAR Tat displ,CDC25B CDK2 inh
CCOC(=O)c1noc2ncn(Cc3ccc4nonc4c3)c(=O)c12,0.7,·
O=c1[nH]c2c(oc3ccc(Cl)cc32)c(=O)n1-c1ccccc1,·,0.05
COC(=O)c1c(SC)[nH]c2ccccc2c1=O,0.5,-1.1
COc1cc2occ(-c3cc4c(cc3OC)OCO4)c(=O)c2cc1OC,0.74,·
COC(=O)c1cc(=O)c2c(C(C)=O)c(OCc3ccccc3)ccc2[nH]1,·,-1.8
Cn1nc(C(C)(C)C)cc1C(=O)Nc1ccc2nccnc2c1,·,0.24
CC(C)OCCCNC(=O)C1CCN(c2nnc(N3CCCC3=O)s2)CC1,1.4,·
COc1ccc(/C=C/c2nc3ccccc3s2)cc1OC,·,-2.3
COc1ccc(-c2nnc(SCc3cccc4ccccc34)o2)cc1,1,-1.6
COc1cc(NC(=O)CCS(=O)(=O)c2ccc3c(c2)CC(C)N3C(=O)C2CC2)cc(OC)c1 (configuration not stated),-0.55,·
Cn1nc(C(=O)NC2CC2)c2c1-c1ccccc1OC2,0.52,-1
O=C(CCCc1nc(-c2ccco2)no1)Nc1ccccc1,2.3,-2
COc1ccc(N(C)C(=O)c2nn(C)c3c2COc2ccccc2-3)c(OC)c1,1.8,-1.2
Cn1c(=O)c2c(-c3ccccc3)n(CCc3c[nH]c4ccccc34)cc2n(C)c1=O,0.14,-0.5
COCCCNc1sc(S(C)(=O)=O)nc1S(=O)(=O)c1ccc(C)cc1,0.55,0.24
COC(=O)c1cc2sccc2n1CC(=O)c1ccccc1,0.2,9.2*
CCc1cc2c(cc3n2CC(C)(C(=O)NC2CCC(C)CC2)N(CCCN2CCCC2)C3=O)s1 (configuration not stated),2.2,0.51
CCCc1nccn1S(=O)(=O)c1cc(F)ccc1OC,-0.27,0.84
O=C(C1CCN(c2ccc(N3CCCC3)nn2)CC1)N1CCC(N2CCCCC2)CC1,2.2,·
CCCCOC(=O)C1=C(C)NC2=C(C(=O)CCC2)C1c1ccc(O)c(OC)c1 (configuration not stated),-9.4,-0.65
Cc1cccc(-c2nc(SCc3cc(=O)c4ccccc4[nH]3)n[nH]2)c1,-0.21,·
CCCCC(CC)C(=O)Nc1nc2ccc(S(C)(=O)=O)cc2s1 (configuration not stated),-0.15,-0.98
CC1=NS(=O)(=O)c2cc(S(=O)(=O)CC(=O)Nc3ccc(Br)cc3)ccc2N1,1.9,·
O=C(NC1CCSC1=O)c1cc(-c2ccccc2)nc2ccccc12 (configuration not stated),·,-0.9
O=C(c1cc(C2CC2)on1)N1CCCC1c1ccc(Cl)cc1 (configuration not stated),1.2,-1.7
Cn1c(=O)c2c(O)cc(=O)n(-c3ccccc3)c2n(C)c1=O,·,-0.29
CCOC(=O)c1sc2cccc(F)c2c1S(=O)(=O)Nc1ccccc1,1,·
O=C1CC(=O)Nc2cc(S(=O)(=O)N3CCn4c3nc3ccccc34)ccc2N1,·,-0.15
COc1ccc(-c2nc(-c3ccccc3)no2)cc1,·,-1.8
Cc1cc(C)c2c(C)c(C(=O)NCC(c3ccc(C)o3)N3CCCC3)oc2c1 (configuration not stated),2.4,-1.5
OC[C@H]1O[C@@H](n2cnc3c(NC4CCCC4)nc(Cl)nc32)[C@@H](O)C1O (some centres not stated),2.7,·
O=C1CCCc2nc(N3CCCCC3)nc(Nc3ccccc3)c21,0.75,-1.5
CC(C)CCNC(=O)Nc1ccc2nc3n(c(=O)c2c1)CCCC3,2.3,·
CC(C)(C)c1ccc(-c2cc(N)n[nH]2)cc1,0.54,-1.4
COc1ccc2c(c1)CC(NC(=O)NCCCN1CCC(N3CCCCC3)CC1)CO2 (configuration not stated),-0.07,·
CCC(C)Nc1ncnc2c1cnn2-c1ccccc1 (configuration not stated),·,-1.4
N#Cc1sc2nc(-c3ccccc3)cc(C(F)(F)F)c2c1N,·,0.23
Cn1c(=O)c(Cc2ccccc2)c(O)c2ccccc21,·,-0.82
Cc1ccc2c(c1)NC1(CCN(S(=O)(=O)c3ccc4c(c3)oc(=O)n4C)CC1)c1cccn1-2,0.97,·
O=C(NC1CCCCC1)c1ccc2c(c1)NC(=O)C1CCCCN21 (configuration not stated),0.17,·
CC1O[P+]2(OC1C)OC(C)C(C)O2 (configuration not stated),·,5.2*
Clc1ccc(/C=C/c2nc3ccccc3[nH]2)cc1,1.2,-0.84
CCOC(=O)c1c(S(=O)(=O)NCc2ccc(C)o2)c(C)n(C)c1C,0.16,·
CCOC(=O)C1=C(O)/C(=C\c2ccc(CNC(=O)C(=O)Nc3ccc(Cl)c(Cl)c3)o2)N=C1C,·,-0.05
COc1ccc(S(=O)(=O)c2cnc3ccc(Cl)cc3c2N2CCCC2)cc1,0.41,0.34
CC(C)(C)CN/C(C#N)=C(\C#N)N=Cc1cccc(Cl)c1,·,1.3
CSc1ncc(Cl)c(C(=O)N(Cc2ccc(C(C)(C)C)cc2)C2CCS(=O)(=O)C2)n1 (configuration not stated),0.56,-2.6
Brc1ccc(-c2cn3ccccc3n2)s1,·,-1.5
CC(Nc1nn2nnnc2c2ccccc12)c1ccccc1 (configuration not stated),1.5,-3.2
NC(=O)c1c(NC(=O)Cn2c(=O)sc3ccccc32)sc2c1CCCC2,-0.87,-0.35
Cc1c(-c2nnc(SCC(=O)Nc3ccccc3F)o2)nnn1-c1ccc(F)cc1,-4.8,·
Cc1nc(-c2ccc(S(=O)(=O)Nc3ccc(C)c(N(C)C)c3)cc2)co1,-0.82,·
Cc1ccc(S(=O)(=O)NC(C)(C)CO)cc1-c1nnc2c3ccccc3c(C)nn12,0.81,-1.6
CCn1nc(C)c(CCNC(=O)c2noc(C)c2Cn2nc(C)cc2C)c1C,-0.57,·
Cc1nc2ccccc2c2oc(C(=O)Nc3ccc4c(c3)OCO4)cc12,·,0.02
Cc1nnc(NCCO)c2c1nnn2Cc1ccccc1Cl,0.87,-1.5
COC(=O)c1c[nH]n2c(NC3CCCCC3)c(-c3ccc(Cl)cc3)nc12,·,-0.49
Cc1ccc(Cc2nc(CCNS(=O)(=O)c3cccc4nsnc34)n[nH]2)cc1,2,·
Fc1ccc(-c2noc3ncnc(NCc4ccccn4)c23)cc1,-0.89,·
Cc1nc2ccccc2c2oc(C(=O)N3CCC(N4CCCCC4)CC3)cc12,0.35,-0.37
CCCNS(=O)(=O)c1cc(Br)cc2c1N(C(=O)CC)CC2,·,-0.09
Cc1cc(C)c(NS(=O)(=O)c2ccc3c(c2)NC(=O)C(C)C(=O)N3)c(C)c1 (configuration not stated),0.58,-0.02
CC1CCc2c(C(=O)NCCCSC3CCCCC3)csc2C1 (configuration not stated),1.3,-2.6

# Random excerpt: 4 compounds from above, in no set order.
SMILES,TAR Tat displ,CDC25B CDK2 inh
Brc1ccc(-c2cn3ccccc3n2)s1,·,-1.5
NC(=O)c1c(NC(=O)Cn2c(=O)sc3ccccc32)sc2c1CCCC2,-0.87,-0.35
CCCNS(=O)(=O)c1cc(Br)cc2c1N(C(=O)CC)CC2,·,-0.09
Cc1ccc(Cc2nc(CCNS(=O)(=O)c3cccc4nsnc34)n[nH]2)cc1,2,·

# (cont.)
SMILES,TAR Tat displ,CDC25B CDK2 inh
COc1cc2ncc3c(-c4ccccc4)n[nH]c3c2cc1OC,-1.1,-2.1
Clc1ncnc2c1C(c1ccccc1)c1c(Cl)ncnc1O2,·,-1.1
O=S1(=O)C[C@H](N2CCN(Cc3ccc4c(c3)OCO4)CC2)[C@@H](S(=O)(=O)c2cccs2)C1,-1.2,-1
O=C(c1cc2c(s1)-c1ccsc1CC2)N1CCN(c2ccccc2)CC1,0.15,·
COc1cccc2c(N)c(C(=O)c3ccc(Cl)cc3)oc12,-0.5,·
O=c1cc(-c2cccc([N+](=O)[O-])c2)nc2c(-c3ccccc3)c(C(F)(F)F)[nH]n12,·,-1.3
CC1CCC(NC(=O)C2c3cccn3CC(=O)N2CCC2=CCCCC2)CC1 (configuration not stated),-1.3,-0.96
COC(=O)C1=NNC(C(=O)c2ccco2)C1c1ccccc1 (configuration not stated),-0.03,0.47
CCC(NS(=O)(=O)c1ccccc1)C(=O)O (configuration not stated),1.1,-0.32
Cn1c(=O)c2c(ncn2CC(=O)N2CCc3ccccc3C2)n(C)c1=O,·,-1.3
O=c1c(SCc2cccc(F)c2)nccn1-c1cccc(Cl)c1,-0.43,·
Cn1nc(-c2ccc(C=C(C#N)C#N)s2)cc1C(F)(F)F,·,-0.99
O=S(=O)(c1ccccc1)n1nc(-c2ccco2)nc1NCc1cccs1,-0.76,-1.2
O=S1(=O)CCC(S(=O)(=O)Nc2nccs2)C1 (configuration not stated),0.45,-0.99
O=[N+]([O-])c1cccc(C=NCCO)c1,·,0.39
Cc1cc2n(n1)CCC(=O)N2C(C)C(=O)NCCCN1CCCC1=O (configuration not stated),0.84,·
Cc1nc(N2CCOCC2)cc(N2CCN(C(=O)Nc3cccc(F)c3)CC2)n1,1.3,-1.5
Cn1c(Nc2ccc(Cl)cc2)cc(=O)n(C)c1=O,-0.3,0.43
CC1(C)O[C@H]2O[C@H](C(O)CO)[C@H](O)[C@H]2O1 (some centres not stated),·,-0.96
CC[n+]1c(/C=C/C=C/C=C/N(C(C)=O)c2ccccc2)sc2ccccc21,-8,-1.4
COc1cc(C(C)=O)cc(OC)c1O,0.65,·
COc1ccc(Nc2c(-c3ccc(Cl)cc3)nc3cnccn23)cc1OC,-1.1,-2.4
Cc1ccc2nc(C)cc(C(=O)OCC(=O)c3ccc(-c4ccccc4)cc3)c2c1,·,-3.2
COc1ccc(NC2c3ccccc3C(=O)N2c2ccccn2)cc1 (configuration not stated),-0.03,4.2
O=C(c1ccc(CN2C(=O)CSc3ncccc32)cc1)N1CCC(N2CCCCC2)CC1,1.7,·
O=S(=O)(NCc1ccco1)c1ccc(-c2ccc(S(=O)(=O)NCc3ccco3)cc2)cc1,1.1,·
O=[N+]([O-])c1cc(C(F)(F)F)ccc1S(=O)(=O)c1ccc(Cl)cc1,·,-3.8
Cc1cc(C)n2nc(N(Cc3cccs3)S(=O)(=O)c3ccccc3)nc2n1,0.57,-1.6
COC(=O)c1sccc1OS(=O)(=O)c1cc(Cl)cc(Cl)c1,·,-1.2
CCCCOC(=O)n1c(=O)oc2cc(S(=O)(=O)Nc3ccc(C)cc3)ccc21,1.6,-1.4
CCOC(=O)N1CCN(C(=O)N2c3ccccc3Sc3ccccc32)CC1,0.44,0
Nc1ncnc2nc(N3CCCC3)ncc12,·,-1.9
CCc1ccc(C(=O)CC2(O)C(=O)N(C(C)C)c3ccccc32)cc1 (configuration not stated),-0.46,16*
CCN(CC)S(=O)(=O)c1cccc(-c2cn3ccc(C)cc3n2)c1,-0.28,-1.3
COC(=O)CC1Oc2ccc(Cl)cc2NC1=O (configuration not stated),-2.1,-0.74
CCOC(=O)c1c(NC(=O)c2csnn2)sc(C)c1C,0.08,-0.04
COc1ccc(N2C(=O)C3ON(c4ccc(Cl)cc4)C(c4cccs4)C3C2=O)cc1 (configuration not stated),·,-2.2
COc1ccc(Cl)cc1S(=O)(=O)NC1Cc2ccccc2C1,·,-0.06
CCCCSCc1nc2c(c(=O)[nH]1)C1(CCCC1)Cc1ccccc1-2,0.41,0.06

# Bioassay records: PubChem, Center for Chemical Genomics, University of Michigan

# Hits appear at their usual frequency; 0.87% or so of the library scored in one or more.
